Peg3 imprint = induces erasure of genomic imprints in mouse ES cells | mouse ES Peg3-LacZ reporter, beta-gal luminescence, 40 h | Potency, µM (titrated, usually from 60.7 µM), for inactives: at the highest dose activity change, positive = activation, hits mostly activators | actives 0.02% (n = 110,000) | AID 1948; active = well fitted activation curve with a large enough effect; inconclusive = small, poorly fitted or top-dose-only effect; inactive = no such curve, though single readings can be large or run the other way;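 note: 0% = negative control wells on the plate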
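Each well holds 300 Peg3LacZ-Neo (maternal) female ES cells incubated 40 h at 37C, 5% CO2. LacZ is measured by BetaGlo luminescence, with AC50 and maximum efficacy derived from dose-response curves.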
The depositor's hits bear a star; ? = inconclusive; & = joins results of further samples; [ ] = remark or other dose. Potency is the fitted concentration of half-maximal effect. Some of the compounds tested; most or all hits stand in other tables.

Peg3 imprint,molecule
-12%,CCCC(=O)Nc1ccc(OCC(O)CNC(C)C)c(C(C)=O)c1 (configuration not stated)
-18%,CCOc1ccc2nc(N)sc2c1
?,O=C(O)CCc1nc(-c2ccccc2)c(-c2ccccc2)o1
-13%,COC1[C@H](OC(N)=O)C(O)[C@H](Oc2ccc3c(O)c(NC(=O)c4ccc(O)c(CC=C(C)C)c4)c(=O)oc3c2C)OC1(C)C (some centres not stated)
-13%&0%,COC(=O)C1=C(C)NC(C)=C(C(=O)OCCN(C)Cc2ccccc2)C1c1cccc([N+](=O)[O-])c1 (configuration not stated)
1%,CC(C)(C)NC[C@H](O)c1ccc(O)c(CO)c1
-19%[10.9 µM],COc1cc(NC(=O)Cn2c(=O)oc3cc(S(=O)(=O)N4CCCCCC4)ccc32)cc(OC)c1
-27%,CC(C)(C)CC(C)(C)c1ccc(OCCOCC[N+](C)(C)Cc2ccccc2)cc1
-7%[16.8 µM],CCC(C)(C)C(=O)O[C@@H]1C[C@H](C)C=C2C=C[C@H](C)[C@@H](CC[C@H]3C[C@@H](O)CC(=O)O3)[C@H]21
-17%,C[C@H](C(=O)O)c1cccc(C(=O)c2ccccc2)c1
-24%,CCC(C)(C)C(=O)OC1CC(C)C=C2C=CC(C)C(CCC3CC(O)CC(=O)O3)C21 (configuration not stated)

An excerpt of these results, as labelled records.
CCCC(=O)Nc1ccc(OCC(O)CNC(C)C)c(C(C)=O)c1 (configuration not stated)
- Peg3 imprint: -12%

COC(=O)C1=C(C)NC(C)=C(C(=O)OCCN(C)Cc2ccccc2)C1c1cccc([N+](=O)[O-])c1 (configuration not stated)
- Peg3 imprint: -13%&0%

COC1[C@H](OC(N)=O)C(O)[C@H](Oc2ccc3c(O)c(NC(=O)c4ccc(O)c(CC=C(C)C)c4)c(=O)oc3c2C)OC1(C)C (some centres not stated)
- Peg3 imprint: -13%

O=C(O)CCc1nc(-c2ccccc2)c(-c2ccccc2)o1
- Peg3 imprint: ?

Bioassay records from PubChem.
